Screens from PubChem.
MLL AF4-AF9 inh: inhibitors of human MLL-AF4/AF9 interaction; inhibition, % at 10 µM; AID 651704; 0.47% of 350,000 active; P42568; AlphaScreen, biotin-AF4 peptide binding to FLAG-AF9;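 active = every replicate reaching a set inhibition limit, whatever the replicate mean, cut at about 25% in these data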;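 note: 0% = plate neutral control median and 100% = total signal loss; the record names both 10 and 1 µM as test concentration; the first replicate is given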
Target sequence (P42568 whole entry, looked up): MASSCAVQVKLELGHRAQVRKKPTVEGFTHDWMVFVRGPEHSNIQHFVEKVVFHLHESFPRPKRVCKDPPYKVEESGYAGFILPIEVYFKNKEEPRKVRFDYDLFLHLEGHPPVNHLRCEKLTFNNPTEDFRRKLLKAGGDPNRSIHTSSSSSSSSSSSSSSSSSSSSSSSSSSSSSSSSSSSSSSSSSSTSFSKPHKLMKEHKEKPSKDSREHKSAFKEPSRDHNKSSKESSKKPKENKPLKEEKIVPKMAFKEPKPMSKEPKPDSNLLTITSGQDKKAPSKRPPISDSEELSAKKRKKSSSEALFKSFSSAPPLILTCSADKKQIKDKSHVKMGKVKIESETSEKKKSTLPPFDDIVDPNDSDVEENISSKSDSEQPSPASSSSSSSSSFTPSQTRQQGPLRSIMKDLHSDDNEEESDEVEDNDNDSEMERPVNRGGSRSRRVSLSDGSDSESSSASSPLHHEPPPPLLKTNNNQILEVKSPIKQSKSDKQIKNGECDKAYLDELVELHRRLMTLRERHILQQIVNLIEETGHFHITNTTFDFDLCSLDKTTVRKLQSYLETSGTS
rRNA inh HTS: inhibitors of bacterial rRNA selective over humanized ribosomes; E. coli WT GFP vs humanized-ribosome RFP mutants, fluorescence, 24 h; hits give low values; DMSO median 0, no signal -100; GFP signal change (wild-type ribosome), % (no concentration beside the values); 1.6% of 350,000 active; AID 720706;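 active = significant combined selectivity score with lowered wild-type GFP, culture density cut under 30%, mutant RFP and density less affected; inactive = any of these conditions unmet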; note: one replicate is shown; some compounds called inactive have numbers as strong as hits
FGF22 binding: FGF22 (human) thermal shift binding. Q9HCT0. AID 651658. calls only at 9.99 µM. recombinant FGF22 thermal shift, SYPRO orange fluorescence; percent of sucrose octasulfate shift, DMSO zero. 1.5% of 340,000 active;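 active = melting point raised past a set limit in the mean and every replicate; three in four hits are not shown here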
Target sequence (Q9HCT0 whole entry, looked up): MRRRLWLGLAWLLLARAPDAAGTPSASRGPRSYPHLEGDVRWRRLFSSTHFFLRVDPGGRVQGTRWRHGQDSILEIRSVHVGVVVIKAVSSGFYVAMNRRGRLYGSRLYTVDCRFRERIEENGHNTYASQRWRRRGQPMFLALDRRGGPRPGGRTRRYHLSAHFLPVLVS
rRNA inh HTS OD600: second read-out of rRNA inh HTS, no call of its own (marks repeat the call); OD600 change, %; measured here: OD600 growth;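 optical density of the mix in the first replicate; 0 = DMSO median and -100 = no signal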
rRNA inh HTS RFP: further read-out of rRNA inh HTS, marked with its call; RFP signal change, %; measured here: RFP humanized mutant strains;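 first replicate; 0 = DMSO median and -100 = no signal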
Numbers without * were called inactive; i = inactive. This is a subset; the hit share may differ from the screen's.

Fields – MLL AF4-AF9 inh	rRNA inh HTS	rRNA inh HTS OD600	rRNA inh HTS RFP	FGF22 binding
> C/C=C/c1ccc2c(c1)O[C@@H](CN(C)C(=O)c1ccccc1F)[C@H](C)CN([C@@H](C)CO)S2(=O)=O
  2.1	-1	-18	-3.9	i
> C[C@@H]1CCCCO[C@@H](CN(C)C(=O)Nc2ccc(F)cc2)[C@@H](C)CN([C@H](C)CO)C(=O)c2cc(NC(=O)CCC(F)(F)F)ccc2O1
  -2.3	8	10	-0.1	i
> C[C@H](CO)N1C[C@H](C)[C@@H](CN(C)Cc2ccc(-c3ccccc3)cc2)Oc2ccc(NC(=O)C3CCCCC3)cc2C1=O
  1.2	-5	3	1.4	i
> C[C@@H]1CN([C@@H](C)CO)C(=O)c2cccc(NC(=O)Nc3ccc(F)cc3)c2O[C@@H]1CN(C)S(=O)(=O)c1ccc(Cl)cc1
  -8.2	-8	-5	1.2	i
> COc1ccccc1-c1ccc2c(c1)O[C@H](CN(C)C(=O)c1cccnc1)[C@@H](C)CN([C@@H](C)CO)S2(=O)=O
  0.5	-1	-3	-0.7	i
> CCCC#Cc1cnc2c(c1)C(=O)N([C@H](C)CO)C[C@@H](C)[C@@H](CN(C)C(=O)C1CCOCC1)O2
  -2.5	-1	5	-4.6	i
> COc1cccc(C(=O)NCCS(=O)(=O)N2CCN(c3ccccc3)CC2)c1OC
  -57	6	6	-3.1	i
> O=C1NC[C@H](CCCCN2C[C@H](Cc3ccccc3)N(CCc3ccccc3)C(=O)C2=O)N(CC2CCCCC2)C1=O
  -4.3	-12	-25	-2.2	i
> C[C@H](CO)N1C[C@H](C)[C@H](CN(C)C(=O)NC2CCCCC2)Oc2ccc(NC(=O)CCCN(C)C)cc2CC1=O
  -3.1	5	8	-1.1	i
> COc1ccc(C(O)c2nc(-c3cncnc3)cs2)cc1 (stereo not given)
  -1.4	-9	-15	6.5	i
> COC(=O)C1C2CC3c4[nH]c5cc(OC)ccc5c4CCN3CC2CC(OC2CCCCO2)C1OC (stereo not given)
  13	-6	1	8.2	i
> CCCNC(=O)N1CCC2(CC1)CN(Cc1cccc(OC)c1)[C@H](CO)c1[nH]c3cc(OC)ccc3c12
  -6.5	0	0	-5.1	i
> COc1ccc(C#Cc2ccc3c(c2)O[C@@H](CN(C)C(=O)Nc2cccc(OC)c2)[C@@H](C)CN([C@H](C)CO)S3(=O)=O)cc1
  0.2	2	0	-1.8	i
> COc1cc(CNc2ncnc3c2ncn3[C@H]2CN(CCc3ccccc3)C[C@@H](CO)O2)cc(OC)c1OC
  -5.6	4	3	-2.3	i
> Cn1cnnc1SCC(=O)N1CCc2ccccc2C1
  -4.7	7	7	5.5	i
> C[C@@H]1CN([C@H](C)CO)C(=O)c2cc(-c3cccnc3)cnc2O[C@@H]1CN(C)Cc1ccc(Oc2ccccc2)cc1
  6.5	-1	-16	15	i
> C[C@@H]1CN([C@@H](C)CO)C(=O)c2cc(N(C)C)ccc2O[C@@H](C)CCCCO[C@@H]1CN(C)S(=O)(=O)c1cn(C)cn1
  2.1	3	10	1.8	i
> COc1ccc(CC(N)c2csc(NC(=O)NCCc3ccccc3)n2)cc1 (stereo not given)
  2.3	9	-5	6.1	i
> O=C(C1CCC1)N1CC(=O)N2[C@@H](CO)[C@@H](c3ccc(Br)cc3)[C@@H]2C1
  -2.7	-1	3	0.1	i
> C[C@@H]1CCCCO[C@H](CN(C)C(=O)C2CCCCC2)[C@H](C)CN([C@@H](C)CO)C(=O)c2cc(NC(=O)Nc3ccc(F)cc3)ccc2O1
  0.6	0	-3	3.8	i

Given tab-delimited: nine of the compounds above
canonical_smiles	MLL AF4-AF9 inh	rRNA inh HTS	rRNA inh HTS OD600	rRNA inh HTS RFP	FGF22 binding
CCCNC(=O)N1CCC2(CC1)CN(Cc1cccc(OC)c1)[C@H](CO)c1[nH]c3cc(OC)ccc3c12	-6.5	0	0	-5.1	i
COc1ccc(C#Cc2ccc3c(c2)O[C@@H](CN(C)C(=O)Nc2cccc(OC)c2)[C@@H](C)CN([C@H](C)CO)S3(=O)=O)cc1	0.2	2	0	-1.8	i
COc1cc(CNc2ncnc3c2ncn3[C@H]2CN(CCc3ccccc3)C[C@@H](CO)O2)cc(OC)c1OC	-5.6	4	3	-2.3	i
Cn1cnnc1SCC(=O)N1CCc2ccccc2C1	-4.7	7	7	5.5	i
C[C@@H]1CN([C@H](C)CO)C(=O)c2cc(-c3cccnc3)cnc2O[C@@H]1CN(C)Cc1ccc(Oc2ccccc2)cc1	6.5	-1	-16	15	i
C[C@@H]1CN([C@@H](C)CO)C(=O)c2cc(N(C)C)ccc2O[C@@H](C)CCCCO[C@@H]1CN(C)S(=O)(=O)c1cn(C)cn1	2.1	3	10	1.8	i
COc1ccc(CC(N)c2csc(NC(=O)NCCc3ccccc3)n2)cc1 (stereo not given)	2.3	9	-5	6.1	i
O=C(C1CCC1)N1CC(=O)N2[C@@H](CO)[C@@H](c3ccc(Br)cc3)[C@@H]2C1	-2.7	-1	3	0.1	i
C[C@@H]1CCCCO[C@H](CN(C)C(=O)C2CCCCC2)[C@H](C)CN([C@@H](C)CO)C(=O)c2cc(NC(=O)Nc3ccc(F)cc3)ccc2O1	0.6	0	-3	3.8	i

The list goes on.
Fields – MLL AF4-AF9 inh	rRNA inh HTS	rRNA inh HTS OD600	rRNA inh HTS RFP	FGF22 binding
> CO[C@H]1CN(C)C(=O)c2cc(NS(C)(=O)=O)ccc2OC[C@H](C)N(C(=O)C2CCCCC2)C[C@@H]1C
  0.5	2	1	-1.6	i
> CC(C)NC(=O)Nc1ccc2c(c1)C(=O)N(C)[C@@H]1CC[C@H](CC(=O)NCc3ccc(F)cc3)O[C@H]1CO2
  -10	3	-1	-2.0	i
> C[C@@H]1CN([C@@H](C)CO)S(=O)(=O)c2ccc(C3=CCCC3)cc2O[C@H]1CN(C)C(=O)Cc1ccncc1
  0.9	4	4	-0.1	i
> CCc1csc(N2[C@H](CO)[C@H](c3ccc(-c4ccc(F)cc4)cc3)[C@@H]2C#N)n1
  -0.8	-7	-48	2.2	i
> COc1cccc(CN2CCC3(CC2)CN(S(C)(=O)=O)[C@@H](CO)c2[nH]c4cc(OC)ccc4c23)c1
  16	-1	1	1.1	i
> C[C@@H]1CN([C@@H](C)CO)C(=O)c2cc(C#CCN(C)C)cnc2O[C@@H]1CN(C)Cc1ccncc1
  -1.4	2	0	0.6	i
> C[C@@H]1CN([C@H](C)CO)C(=O)c2cc(NC(=O)c3ccccc3)ccc2O[C@@H](C)CCCCO[C@H]1CN(C)S(=O)(=O)c1ccccc1
  1.8	-6	-1	1.2	i
> CNC[C@H]1Oc2cc(-c3ccccc3F)ccc2S(=O)(=O)N([C@H](C)CO)C[C@@H]1C
  1.8	0	2	1.9	i
> CCS(=O)(=O)Nc1ccc2c(c1)C(=O)N(C)[C@H]1CC[C@@H](CC(=O)N3CCCCC3)O[C@H]1CO2
  -0.9	4	2	-1.4	i
> Cc1ccc(S(=O)(=O)Nc2ccc3c(c2)C(=O)N([C@@H](C)CO)C[C@@H](C)[C@H](CN(C)S(=O)(=O)c2c(C)noc2C)OCCCC[C@H](C)O3)cc1
  -2.4	-1	-7	0.1	i
> COc1ccc2c3c([nH]c2c1)[C@@H](CO)N(S(C)(=O)=O)CC31CCN(C(=O)c2ccccc2)CC1
  1.1	1	-13	-2.5	i
> C[C@@H]1CN([C@H](C)CO)C(=O)c2cc(NS(C)(=O)=O)ccc2O[C@@H](C)CCCCO[C@H]1CN(C)C(=O)Nc1ccc(F)cc1
  0.2	2	5	-3.2	i
> C[C@@H]1CN([C@H](C)CO)C(=O)Cc2cc(NC(=O)NC3CCCCC3)ccc2O[C@H]1CN(C)S(=O)(=O)c1cccs1
  2.9	-4	-8	-0.8	i
> CN(C)CCNc1ccc(CO)c2sc3ccc(O)cc3c(=O)c12
  15	-35	-65	1.3	i
> C[C@H](CO)N1C[C@H](C)[C@H](CN(C)C)Oc2ncc(Br)cc2C1=O
  4.1	3	7	-2.3	i
> Cc1cc(C(=O)Nc2cccc3c2O[C@H](CN(C)S(=O)(=O)c2cn(C)cn2)[C@@H](C)CN([C@H](C)CO)C3=O)n(C)n1
  -2.0	2	8	1.1	i
> C[C@@H]1CN([C@@H](C)CO)S(=O)(=O)c2ccc(-c3cccnc3)cc2O[C@H]1CN(C)C(=O)C1CCC1
  -0.7	-2	-13	-3.3	i
> O=C(C[C@H]1C[C@@H]2c3cc(NC(=O)C4CCOCC4)ccc3O[C@@H]2[C@@H](CO)O1)NCc1cc(F)ccc1F
  2.2	-1	9	3.3	i
> CC[C@]12c3[nH]c4cc(-c5ccco5)ccc4c3CCN1C(=O)[C@@H](CC(=O)NCC13CC4CC(CC(C4)C1)C3)C[C@@H]2C(=O)N1CCN(C(=O)C2CC2)CC1
  4.2	6	21	28	i
> COc1ccc(-c2nc3cc(C)c(Br)c(C)n3c2Cc2ccc(C)cc2)cc1OC
  0.4	-2	-2	2.0	i
> COc1ccc(Cc2c(-c3ccccc3)nc3ccc(C)cn23)c(C)c1
  -1.2	5	5	5.5	i
> C[C@H](O)C#Cc1cnc2c(c1)C(=O)N([C@@H](C)CO)C[C@H](C)[C@@H](CN(C)C(=O)CN(C)C)O2
  -1.3	0	4	1.5	i
> C[C@@H]1CN([C@@H](C)CO)C(=O)Cc2cc(NS(=O)(=O)c3cn(C)cn3)ccc2O[C@@H]1CN(C)S(=O)(=O)c1cn(C)cn1
  0.4	4	2	0.1	i
> Cc1ccc(C(O)c2ncc(-c3cccc(F)c3)[nH]2)cc1 (stereo not given)
  5.0	1	-10	-1.1	i
> C[C@@H]1CCCCO[C@@H](CN(C)C)[C@@H](C)CN([C@H](C)CO)C(=O)c2cc(NC(=O)Nc3cccc4ccccc34)ccc2O1
  4.5	1	5	1.2	i
> C[C@H]1CCCCO[C@@H](CN(C)C(=O)Nc2ccc(C(F)(F)F)cc2)[C@@H](C)CN([C@@H](C)CO)C(=O)c2cc(NS(=O)(=O)c3cn(C)cn3)ccc2O1
  1.3	-2	0	-0.2	i
> CCCC#Cc1cnc2c(c1)C(=O)N([C@H](C)CO)C[C@H](C)[C@@H](CN(C)C(=O)c1cnccn1)O2
  -3.4	9	11	-2.7	i
> CO[C@@H]1CN(C)C(=O)c2ccc(NC(=O)c3cnccn3)cc2OC[C@@H](C)N(C(=O)c2cnccn2)C[C@H]1C
  0.2	3	8	-0.2	i
> COc1ccc(S(=O)(=O)N(C)C[C@H]2Oc3ccc(NC(=O)Nc4c(C)noc4C)cc3C(=O)N([C@@H](C)CO)C[C@H]2C)cc1
  0.1	-3	3	0.5	i
> COc1ccc(S(=O)(=O)Nc2ccc3c(c2)C(=O)N([C@@H](C)CO)C[C@@H](C)[C@@H](CN(C)C(=O)Nc2ccc(C(F)(F)F)cc2)OCCCC[C@H](C)O3)cc1
  -1.9	3	9	2.9	i
> COC(=O)CCN(Cc1cc(OC)ccc1OC)S(=O)(=O)c1ccccc1Br
  -4.1	-12	-43	-9.5	i
> COc1ccc(-c2coc3c(C(=O)NCc4ccc(OC)c(OC)c4)cccc23)c(C)c1
  -3.6	-2	-13	4.5	i
> C[C@H](CO)N1C[C@H](C)[C@@H](CN(C)C(=O)Cc2ccccn2)Oc2ncc(-c3cccc(C(=O)N(C)C)c3)cc2C1=O
  -1.8	6	20	0.6	i
> O=C(c1ccco1)N1CCN(C(=O)c2cnn(-c3ccc(F)cc3)c2-n2cccc2)CC1
  0.9	33	8	46	i
> O=C(c1ccc(S(=O)(=O)Cc2cc(F)ccc2F)c([N+](=O)[O-])c1)N1CCOCC1
  -0.4	2	9	1.0	i
> CCCCC[C@@H](C)N1C[C@@H](COCc2ccccc2)Oc2cc(N3CCC[C@H]3COC)ccc2S1(=O)=O
  -4.9	0	13	-3.1	i
> O=C(c1ccco1)N1CC2(CC(c3ccc(Cl)cc3)=NO2)CN1Cc1ccc(Br)cc1 (stereo not given)
  -5.9	-5	-11	-3.3	i
> Cc1noc(C)c1NC(=O)Nc1ccc2c(c1)C(=O)N([C@H](C)CO)C[C@H](C)[C@H](CN(C)C(=O)Nc1ccc(C(F)(F)F)cc1)OCCCC[C@H](C)O2
  -2.4	0	0	-1.6	i
> COc1ccc(C#Cc2ccc3c(c2)O[C@@H](CN(C)C(=O)NC2CCCCC2)[C@H](C)CN([C@@H](C)CO)S3(=O)=O)cc1
  -8.5	3	0	1.6	i
> Cc1ccc(S(=O)(=O)Nc2ccc3c(c2)C(=O)N([C@H](C)CO)C[C@@H](C)[C@@H](CN(C)S(=O)(=O)c2cn(C)cn2)O3)cc1
  -1.9	2	7	-0.8	i
> CCCNC(=O)N(C)C[C@@H]1Oc2cc(C#CCN(C)C)ccc2S(=O)(=O)N([C@@H](C)CO)C[C@@H]1C
  1.3	1	3	-0.2	i
> CCCN(C)C[C@@H]1Oc2ncc(-c3ccc(F)cc3)cc2C(=O)N([C@H](C)CO)C[C@@H]1C
  2.5	-3	-5	-0.5	i
> COC(=O)C(C(=O)OC)c1ccccc1NC(=O)OCc1ccccc1
  3.2	-47	-78	-15	i
